Screens as filed in PubChem BioAssay.
PABP FP inh: blocks human PABP binding to poly(A) RNA. P11940. fluorescence polarization. 290,000 tested, 1% active. inhibition, % at 35 µM;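 active = 50% or more with normal probe brightness, or confirmed in later tests; inconclusive = above 50% with abnormal brightness, or retests that disagree; inactive = below 50% or failed in later tests; about a fifth of its hits are not listed in these tables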;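 note: calls also rest on retests at 20 µM and on dose response follow-up; controls were probe without protein and protein plus probe with vehicle; some compounds called inactive have numbers as strong as hits; many hits fall short of the cut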
Target sequence (P11940 whole entry, looked up): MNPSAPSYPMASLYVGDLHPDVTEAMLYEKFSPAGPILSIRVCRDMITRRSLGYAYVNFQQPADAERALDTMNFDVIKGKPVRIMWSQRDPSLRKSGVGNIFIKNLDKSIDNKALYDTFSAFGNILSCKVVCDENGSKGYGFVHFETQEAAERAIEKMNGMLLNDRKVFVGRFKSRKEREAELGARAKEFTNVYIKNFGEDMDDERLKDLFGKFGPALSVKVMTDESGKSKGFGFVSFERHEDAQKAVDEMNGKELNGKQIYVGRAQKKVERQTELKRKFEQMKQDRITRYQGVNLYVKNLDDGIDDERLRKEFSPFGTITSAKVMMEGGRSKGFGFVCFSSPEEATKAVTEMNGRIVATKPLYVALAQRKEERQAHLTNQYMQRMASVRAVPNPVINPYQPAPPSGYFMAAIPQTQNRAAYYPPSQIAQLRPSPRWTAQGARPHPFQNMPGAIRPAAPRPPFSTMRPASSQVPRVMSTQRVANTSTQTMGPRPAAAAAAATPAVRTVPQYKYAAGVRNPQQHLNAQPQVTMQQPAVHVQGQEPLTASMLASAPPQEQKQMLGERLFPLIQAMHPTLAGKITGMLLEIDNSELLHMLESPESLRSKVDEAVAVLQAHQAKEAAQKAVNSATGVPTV
MT1-MMP act inh: blocks activation of human MT1-MMP; P50281; AID 651647; GFP/RFP ratio change, % at 20 µM; 360,000 tested, 0.061% active; HT1080 RFP-PRO-GFP cells, GFP/RFP ratio fluorescence, overnight; percent of plate control window, DMSO zero;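 active = GFP/RFP ratio change of at least 30% with cell ATP level not reduced by more than half and red fluorescence within 50% of control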; note: strong numbers were not always called active
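Read-out: GFP/RFP fluorescence ratio; Test system: RFP-PRO-GFP reporter HT1080 cells; Compound dosing: single-point 20 µM compound, 1% DMSO; Times: overnight compound exposure at 37 °C.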
Env fusion inh: inhibitors of HIV Env-mediated cell fusion | HeLa-JRFL Env/CEM21 cell fusion, luciferase | inhibition, % at 12.3 µM | 360,000 tested, 1.1% active | AID 651610;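 active = mean replicate inhibition score of at least 50 and every replicate individually at or above 50; inconclusive = only one of the two criteria met; inactive = mean below 50 and not all replicates reaching 50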;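 note: 0% = plate neutral controls and 100% = maraviroc near 300 nM; one replicate is shown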
Rce1 inhib: inhibitors of yeast Ras-converting enzyme; calls only; yeast membranes, quenched prenylated peptide cleavage fluorescence; 290,000 tested, 0.27% active; Q03530; AID 2563;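 active = fall in fluorescence gain of 50% or more versus controls, with final raw signal at or below 3038400; inconclusive = same 50% fall but final raw signal above 3038400; inactive = fall in fluorescence gain under 50%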;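 note: plate controls were neutral control wells for no effect and wells lacking membranes for full effect; tested at 10 µM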
Target sequence (Q03530 whole entry, looked up): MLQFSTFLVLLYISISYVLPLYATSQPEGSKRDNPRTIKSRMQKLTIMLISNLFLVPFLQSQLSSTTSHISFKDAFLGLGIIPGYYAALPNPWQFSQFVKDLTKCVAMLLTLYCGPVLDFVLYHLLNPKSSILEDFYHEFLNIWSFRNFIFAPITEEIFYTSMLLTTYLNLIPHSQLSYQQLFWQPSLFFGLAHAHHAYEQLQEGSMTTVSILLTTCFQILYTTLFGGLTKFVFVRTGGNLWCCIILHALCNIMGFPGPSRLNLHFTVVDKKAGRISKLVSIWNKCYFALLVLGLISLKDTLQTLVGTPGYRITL
CSC inhib: blocks cancer stem cells. cancer stem cell-like cells viability, luminescence. inhibition, % at 7.5 µM. 300,000 tested, 1.1% active. AID 2717;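 active = mean at 75% or more and at least half the replicates too; inconclusive = mean and replicates disagree; tested in HMLE shEcad cells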;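 note: 0% = median of negative and 100% = median of positive control wells; the first replicate is given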
eIF4H FP inh: inhibitors of RNA binding by human eIF4H; Q15056; eIF4H fluorescence polarization binding assay; inhibition, % at 35 µM; 290,000 tested, 0.94% active;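 active = 50% or more with normal probe brightness, or confirmed in later tests; inconclusive = above 50% with abnormal brightness, or retests that disagree; inactive = below 50% or failed in later tests; about a fifth of its hits are not listed in these tables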;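 note: calls also rest on retests at 20 µM and on dose response follow-up; 0% = protein and probe with vehicle and 100% = probe without protein; strong numbers were not always called active; many hits fall short of the cut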
Yeast UUG start: yeast start codon fidelity modulation; 350,000 tested, 0.13% active; S. cerevisiae UUG-firefly luciferase reporter, luminescence/redox ratio; AID 602363; activity score, % at 18.7 µM;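 active = replicate mean at a twofold rise or more, about +100% in these data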;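 note: firefly luciferase made from a UUG start codon reports start codon fidelity; reporter light over untreated wells divided by growth signal over untreated wells; some hits fall short of that in this replicate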
eIF4H FP inh retest: second read-out of eIF4H FP inh, no call of its own (marks repeat the call); inhibition, %; compound at 20 µM; confirmation average;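 mean of two retest wells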
PABP FP inh retest: second read-out of PABP FP inh, no call of its own (marks repeat the call); inhibition, %; compound at 20 µM; confirmation repeats;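 mean of two retest wells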
MT1-MMP act inh RFP: recorded beside MT1-MMP act inh, whose call it bears; RFP signal change, %; measured here: RFP expression control read;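 0 = vehicle wells; hits needed this value within 50% of zero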
Active calls of the source: *; i = inactive; ? = inconclusive; . = no result given. This is a subset (hit frequency here may not be typical).

SMILES	PABP FP inh	MT1-MMP act inh	MT1-MMP act inh RFP	Env fusion inh	Rce1 inhib	CSC inhib	eIF4H FP inh	Yeast UUG start	others
CCCCn1c(O)c(C(C)=Nc2ccc(OCC)cc2)c(=O)[nH]c1=O	-4	-4	-7	.	i	-2	-2	-8
COc1ccc2nc3oc(C(=O)N4CCC5(CC4)OCCO5)cc3cc2c1	-14	1	1	-3	i	4	-8	.
Nc1ccncc1Cl	-2	-2	1	26	.	-1	3	.
COC1=CC2C3Cc4ccc(OC)c(O)c4C2(CCN3C)CC1=O (configuration not stated)	.	-5	4	4	.	.	.	-16
O=C1NCN(c2ccccc2)C12CCN(C(c1ccccc1OC(F)(F)F)c1nnnn1C1CCCCC1)CC2 (configuration not stated)	.	5	-6	-14	.	.	.	-14
O=c1c2ccccc2nc(CSc2ncnc3nc[nH]c23)n1-c1ccc(Cl)c(Cl)c1	-8	1	-2	.	i	0	4	-16
Cc1nn(C)cc1/C=C1/CC2C3CC=C4CC(O)CCC4(C)C3CCC2(C)C1=O (configuration not stated)	.	7	-3	-13	i	-13	.	2
COc1ccc2c(c1)CC1(CN2C)C(=O)NC(=O)N(c2ccc(C)cc2)C1=O (configuration not stated)	10	-10	4	.	i	-6	10	-5
CCCc1nc2ccccc2c(=O)n1-c1cccc(OC)c1	0	0	1	.	i	-7	-2	-12
Cc1ccc(C(=O)COC(=O)Cc2ccccc2)cc1	3	1	4	-4	i	-18	-10	-37
CNCCc1c[nH]c2ccc(O)cc12	.	3	5	9	i	-13	.	-18
Cc1cccc(C)c1N1CCN(c2c(C)cccc2C)CC1	5	3	-6	6	i	-10	-2	-19
Cc1[nH]c2ccc(O)cc2c1CCN	.	-3	2	16	.	-11	.	-12
O=C(NCCCN1CCOCC1)C(Cl)(Cl)Cl	-4	7	8	-10	i	-15	-2	.
CNC(=O)O/N=C(\N)Cc1csc2ccc(Cl)cc12	4	8	-1	-3	i	7	10	.

Continued, overlapping the part above by five compounds.
SMILES	PABP FP inh	MT1-MMP act inh	MT1-MMP act inh RFP	Env fusion inh	Rce1 inhib	CSC inhib	eIF4H FP inh	Yeast UUG start	others
CNCCc1c[nH]c2ccc(O)cc12	.	3	5	9	i	-13	.	-18
Cc1cccc(C)c1N1CCN(c2c(C)cccc2C)CC1	5	3	-6	6	i	-10	-2	-19
Cc1[nH]c2ccc(O)cc2c1CCN	.	-3	2	16	.	-11	.	-12
O=C(NCCCN1CCOCC1)C(Cl)(Cl)Cl	-4	7	8	-10	i	-15	-2	.
CNC(=O)O/N=C(\N)Cc1csc2ccc(Cl)cc12	4	8	-1	-3	i	7	10	.
O=C(Nc1ccc(Cl)c(Cl)c1)c1ccco1	4	1	-1	-80	i	27	9	-18
O=c1c2ccccc2nc(CNc2ccccc2)n1-c1ccccc1	3	-2	2	-5	i	1	0	2
CCOP(=O)(OCC)C(NS(=O)(=O)c1ccccc1)C(Cl)(Cl)Cl (configuration not stated)	10	-1	5	-4	i	-19	2	.
N#Cc1ccc(Cn2cc(C(=O)c3ccco3)c3ccccc32)cc1	-6	8	-2	-9	i	7	1	-11
COC(=O)c1ccc(CN2CCSC2=N)cc1	12	-4	2	6	i	10	-14	0
O=C1NC(=O)N(CCc2ccc(F)cc2)C(=O)/C1=C/c1ccco1	14	-20	22	0	i	13	98	.	eIF4H FP inh retest=-1;PABP FP inh retest=3
S=c1[nH]c2ccccc2[nH]1	-3	-1	1	-3	i	.	-5	.
Cc1ccc(-n2c(O)c(/C=N/NC(=O)c3ccncc3)c(=O)[nH]c2=O)cc1C	4	-2	2	.	i	-6	?	.
[O-]c1ccccc1-[n+]1c(-c2ccccc2)cc(-c2ccccc2)cc1-c1ccccc1	.	-5	-34	-6	i	38	.	3
C[N+]1(CC(COCc2ccccc2)OC(=O)Cc2ccccc2)CCOCC1 (configuration not stated)	4	0	3	5	i	-15	8	.
C=C1C2C[C@H](O)C(C)(C)[C@@]2(O)[C@H](O)C[C@]23C[C@@](C)(O)[C@H](CC[C@H]12)[C@H]3OC(C)=O (some centres not stated)	11	3	4	1	i	-12	5	-23
CCCCn1nnnc1C(c1ccccc1)N1CCC2(CC1)C(=O)NCN2c1ccccc1 (configuration not stated)	.	5	-1	-225	.	.	.	0
COC(=O)C1=C(c2c(C)noc2C)C[C@@H]2CC[C@H]1N2C(=O)NC1CC1	.	-2	2	-56	.	-3	.	-11
Cc1ccnc(-n2c(C)cc(/C=C3\C(=O)NC(=S)N(C)C3=O)c2C)c1	-1	-12	-6	9	i	2	?	-21
CC(Cc1ccccc1)[n+]1cc(/N=C(\[O-])N(C)C)on1 (configuration not stated)	8	4	3	.	i	-5	-1	-9
CCn1c(=O)cc(OCC(=O)N2CCC3(CC2)OCCO3)c2ccccc21	2	4	2	-88	i	4	1	.
O=C1NC(=O)C(Nc2ccccc2)C(=O)N1	.	3	-2	-5	.	.	.	-10
Clc1ccc2c(N3CCNCC3)ccnc2c1	-7	-15	-6	-131	i	-4	-5	.
COc1ccc(CCC(=O)NCCc2cnc[nH]2)cc1	-6	7	4	-14	i	2	-4	-7
CCC1C(C#N)=C(N)Oc2c1c(=O)oc1ccccc21 (configuration not stated)	3	1	6	14	i	5	-4	-13
C=C(C=O)C[C@@H]1C[C@H](O)C2OC3C[C@]4(C)OC5/C=C\CC6OC7C(CC=CCC6OC5CCCC4OC3CC2O1)OC1CC2OC3CC(=O)OC3C[C@@H](C)C[C@@]2(C)OC1C[C@@H]7C (some centres not stated)	-4	.	.	.	i	104*	8	.
O=C1NC(=S)N(C2CC2)C(=O)/C1=C/c1ccc2c(c1)CCN2CCCCl	-7	-3	20	-4	i	21	80	-9	eIF4H FP inh retest=-10;PABP FP inh retest=10
CN1C(=O)N(C)C(=O)C2(Sc3ccccc3C2=O)C1=O	41	1	10	.	.	-10	-16	-15
COc1ccc(C(=O)N2Cc3cnnn3-c3ccccc3C2C#N)cc1 (configuration not stated)	.	6	1	11	.	.	.	-10
COc1ccc(O)c2c(=O)c3c(OC)cc4c(c3oc12)C1C=COC1O4 (configuration not stated)	4	-6	-4	.	i	36	-6	2
COC(=O)C[C@]1(C(=O)OC)CN(C#N)N(c2ccc(Cl)cc2)C12c1ccccc1-c1ccccc12	-4	-19	-36	-30	i	0	3	-16
Cc1nc2ccccc2c(=O)n1-n1cnnc1	-4	2	6	19	i	-7	-5	-1
CCOC(=O)C1(CCCc2ccccc2)CCN(C2CCC2)CC1	-8	0	7	20	i	32	7	-15
CCOC(=O)[C@]12Cc3ccccc3[C@H]1N(Cc1ccccc1)C(=O)c1ccccc12	.	-1	-8	-15	.	.	.	-20
CCn1ccnc1CN1CCCC(C(=O)c2ccc(OC)cc2OC)C1 (configuration not stated)	3	-6	-3	19	i	-2	8	-10
NNCc1cccc(O)c1	9	-3	2	21	i	-3	-3	-25
CN(C)CC1CCCCC1OC(=O)c1ccc(Cl)c(Cl)c1 (configuration not stated)	0	3	2	0	i	18	-3	.
Cc1oc(-c2ccc(F)cc2F)nc1CN1C[C@@H]2C[C@@H](C1)c1cccc(=O)n1C2	-4	-3	5	5	i	-11	-8	.
COc1ccccc1-n1c(O)c(/C=C2\C=Nc3ccccc32)c(=O)[nH]c1=O	?	-11	2	-41	i	-2	?	2
CCCCn1c(=O)c(C(=O)Nc2ccccn2)c(O)c2ccccc21	4	-8	-10	-13	i	23	-4	-12
CCCCCCn1c(=O)c(C(=O)Nc2c(C)n(C)n(-c3ccccc3)c2=O)c(O)c2ccccc21	-5	1	-15	-8	i	41	12	-14
CCC1CN1P(=O)(c1ccccc1)N1CC1CC (configuration not stated)	.	4	5	-7	.	.	.	-6
Cc1cc(C=C2C(=O)N(C)C(=S)N(C)C2=O)c(C)n1C1CCCCC1	45	-67	8	.	i	-4	57	.	eIF4H FP inh retest=22;PABP FP inh retest=25
CN1C(=O)C(=Cc2ccc(Sc3ccccc3)o2)C(=O)N(C)C1=O	36	33*	41*	-3	.	-33	61	.	eIF4H FP inh retest=-5;PABP FP inh retest=47
O=C(Nc1ccccc1)Oc1ccccc1	0	1	3	.	i	-1	-5	-9
Cc1cc2ccccn2c1C(C[N+](=O)[O-])c1c(F)cccc1Cl (configuration not stated)	7	-6	-1	-15	i	44	26	-1
CCCCn1c(O)c(C(CC)=NCc2ccc3c(c2)OCO3)c(=O)[nH]c1=O	10	-3	-4	23	i	.	-5	8
O=C(Nc1nccs1)C(Cl)(Cl)Cl	24	-1	1	-15	i	-3	0	.
CC(C)c1ccc(C2N3CCCN23)cc1 (configuration not stated)	0	1	2	15	i	1	9	.
CC12CCC(=O)C=C1CC(O)C1C2CCC2(C)C1CCC2(C)O (configuration not stated)	.	-3	2	6	.	.	.	-21
CCOC(=O)c1c(-n2c(C)cc(C=C3C(=O)NC(=S)NC3=O)c2C)sc2c1CCCC2	-5	-30	8	.	i	-4	22	-20
C=CCn1c(O)c(C=Nc2ccc(N(CC)CC)cc2)c(=O)[nH]c1=O	62*	-27	-3	.	i	16	54*	.
CC(=O)O[C@@]12CO[C@@H]1C[C@H](O)[C@@]1(C)C(=O)[C@H](O)C3=C(C)[C@@H](O)C[C@@](O)([C@@H](OC(=O)c4ccccc4)C12)C3(C)C (some centres not stated)	-3	7	6	.	i	28	-7	-14
O=C(c1ccccc1)c1cn(CC(=O)N2CCOCC2)c2ccccc12	-2	2	5	.	.	-6	6	2
Clc1cccc(N2CCNCC2)c1Cl	1	-9	-3	-64	i	-3	-5	-13
Cc1c2cnn(CC(=O)N3CCC4(CC3)OCCO4)c(=O)c2c(C)n1Cc1cccc(Cl)c1	17	2	0	-1	i	-7	-1	3
Cc1nc(Cl)sc1C(=O)Nc1ccc2ccccc2c1	18	-2	-3	.	i	-15	-8	.
O=c1[nH]c(O)c(C=Nc2ccc(F)c(Cl)c2)c(=O)[nH]1	35	0	2	11	i	-4	76	-8	eIF4H FP inh retest=-10;PABP FP inh retest=49
COC(=O)C1=C(c2ccc(C(C)=O)cc2)C[C@@H]2CC[C@H]1N2C(=O)N1CCCC1	.	13	2	-10	.	-5	.	2

Three structures out of the list, ordered by formula weight, highest first.
SMILES	PABP FP inh	MT1-MMP act inh	MT1-MMP act inh RFP	Env fusion inh	Rce1 inhib	CSC inhib	eIF4H FP inh	Yeast UUG start	others
CCOC(=O)C1(CCCc2ccccc2)CCN(C2CCC2)CC1	-8	0	7	20	i	32	7	-15
Cc1nc(Cl)sc1C(=O)Nc1ccc2ccccc2c1	18	-2	-3	.	i	-15	-8	.
COc1ccc(CCC(=O)NCCc2cnc[nH]2)cc1	-6	7	4	-14	i	2	-4	-7
